Screening data: PubChem, National Center for Advancing Translational Sciences (NCATS)
AmpC inh no det = AmpC beta-lactamase inhibition, detergent-free assay; hit rate 1.8% among 71,000; Potency, µM (titrated, usually from 28.7 µM), for the others: at the top dose activity change, negative = inhibition; AmpC nitrocefin hydrolysis, absorbance 480 nm, no detergent; potencies from a single point are estimates; active = falling curve, for most hits resting on a single point; inconclusive = weak or doubtful change; inactive = flat or rising curve; note: % of control where 0% means no effect; about half of the hits show no inhibition at the top dose; a quarter of the inactives give rising signals
Target sequence (P00811 whole entry, looked up): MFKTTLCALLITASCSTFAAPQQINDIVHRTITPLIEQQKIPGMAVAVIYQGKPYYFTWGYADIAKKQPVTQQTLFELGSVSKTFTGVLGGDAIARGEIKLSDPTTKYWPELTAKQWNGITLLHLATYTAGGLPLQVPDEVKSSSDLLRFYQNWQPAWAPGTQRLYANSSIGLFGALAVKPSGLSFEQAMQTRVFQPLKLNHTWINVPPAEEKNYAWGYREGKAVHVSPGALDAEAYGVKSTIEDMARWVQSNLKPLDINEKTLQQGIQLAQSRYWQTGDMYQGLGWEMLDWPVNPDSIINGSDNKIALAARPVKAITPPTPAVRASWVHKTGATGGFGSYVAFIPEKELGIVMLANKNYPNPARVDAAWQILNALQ
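AmpC in 20 mM phosphate buffer pH 7.0 was preincubated 15 min at room temperature with compounds. Nitrocefin (800 uM stock) was then added and hydrolysis followed at 480 nm every 20 s for 4 min.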
* marks the source's active call; other numbers are inactive results; ? = inconclusive; [ ] = dose if it differs, or a comment. Potency is the fitted concentration of half-maximal effect. Only part of the results is shown; count on the stated rates, not on these rows.

The opening 2 compounds, to show the layout:
SMILES	AmpC inh no det
COc1ccc(-c2sccc2C(C)C(=O)O)cc1 (stereo unspecified)	1%
CCOC(=O)C1=C(c2ccccc2)NC(=O)NC1c1ccc(OCC#N)c(OC)c1 (stereo unspecified)	25%

Main list, previewed entries included:
SMILES	AmpC inh no det
COc1ccc(-c2sccc2C(C)C(=O)O)cc1 (stereo unspecified)	1%
CCOC(=O)C1=C(c2ccccc2)NC(=O)NC1c1ccc(OCC#N)c(OC)c1 (stereo unspecified)	25%
CCOC(=O)C1CCCN(c2cc(C)nc3cc(-c4ccc(F)cc4)nn23)C1 (stereo unspecified)	134%
CC1(C)Cc2ccccc2C(=NCCCC(=O)O)N1	-13%
CC1CCN(c2c(NCc3ccc(C(=O)NCc4cccnc4)cc3)c(=O)c2=O)CC1	5%
Cc1cc(NC(=O)c2cc(-c3cccs3)nc3ccccc23)no1	4µM*[single pt active]
N#Cc1c(NC(=O)CN2CCN(S(=O)(=O)c3ccc4c(c3)OCCO4)CC2)sc2c1CCC2	-20%
CCCCOC(=O)n1c(=O)oc2cc(S(=O)(=O)N3CCCCC3)ccc21	15%
COc1cc2c(cc1OC)/C(=C/C(=O)N1CCOCC1)NC(C)(C)C2	57%
COc1ccc(S(=O)(=O)n2c(CCN3CCOCC3)nc3ccccc32)cc1	146%
COc1cc(OC)c(NS(=O)(=O)c2coc(C(N)=O)c2)cc1Cl	21%
O=C(NCc1ccco1)c1ccccc1Br	-14%
CCNc1ncc2nc(CCc3ccccc3)c(=O)n(-c3ccc(OC)cc3)c2n1	16%
COCCNC(=O)C(c1ccc(C)o1)N(CC1CCCO1)C(=O)Cn1nnc2ccccc21 (stereo unspecified)	27%
CN(C)S(=O)(=O)c1ccc(C(=O)NCc2cccs2)cc1	0%
O=C(O)CS(=O)(=O)c1ccc(Oc2ccc(S(=O)(=O)CC(=O)O)cc2)cc1	-11%
CCOC(=O)N1CCN(S(=O)(=O)c2ccc3c(c2)SC(C)C(=O)N3)CC1 (stereo unspecified)	34%
CN(C(=O)c1c(Cl)nc2sccn12)C1CCCCC1	12%
CCCC1(C(=O)O)NC(c2ccc(OC)cc2O)C2C(=O)N(c3ccc(OC)cc3)C(=O)C21 (stereo unspecified)	-5%
COC(=O)c1nc(NC(=O)c2ccc(Cl)cc2)n[nH]1	-11%
Cc1csc(SCC(=O)Nc2cccc3nsnc23)n1	-5%
Cc1ccc(-n2nnnc2SCC(N)=O)c(C)c1	4%
CC(=O)c1cccc(N2C(=NC(=O)C(C)C)SC3CS(=O)(=O)CC32)c1 (stereo unspecified)	-14%
CC1(C)Oc2ccc(C(=O)N3CCCCC3)cc2N(CC(=O)NCc2ccccc2)C1=O	19%
CCOC(=O)N1CCN(C(=O)c2cccc(OC)c2OC)CC1	1%
COc1ccc(OC)c(C(=O)c2ccc(C(=O)O)cc2)c1	6%
CCSc1nnc(NC(=O)CSc2nccn2-c2cccc(C)c2C)s1	22%
COC(=O)c1sc(NC(=O)C2CCCCC2C(=O)O)c(C(=O)OC)c1C (stereo unspecified)	-4%
CCSc1nc2c(cnn2-c2ccc(C)cc2)c(=O)[nH]1	2%
O=C(CCNS(=O)(=O)c1ccc2c(c1)CCC(=O)N2)Nc1ccc2c(c1)OCCO2	-8%
CCn1c(SCC(=O)Nc2cccc(C)c2)nc2c(c1=O)SC(C)C2 (stereo unspecified)	31%
CC(OC(=O)c1cccs1)C(=O)NCc1ccc2c(c1)OCO2 (stereo unspecified)	4%
COCC(=O)Nc1nnc(Cc2ccc(OC)c(OC)c2)s1	-3%
O=C(CCN1C(=O)C2C3C=CC(C3)C2C1=O)Nc1c(F)cc(F)cc1Br (stereo unspecified)	15%
Cc1nc(N)sc1CCN	6%
COc1ccc(NC(=O)CN2C(=O)CC(C)(C)S(=O)(=O)c3ccccc32)cc1	60%
C=CCn1c(C(C)NC(=O)CC)nc2ccccc21 (stereo unspecified)	-2%
NNS(=O)(=O)c1cc(C(=O)O)cc(C(=O)O)c1	2%[5.75 µM]
CCOC(=O)c1c(C)[nH]c(C(=O)CN2CC(C)OC(C)C2)c1C (stereo unspecified)	27%
CCCCN1C(=O)c2ccc(C(=O)Nc3cccnc3)cc2C1=O	9%
N#Cc1c(SCC(=O)Nc2nccs2)nc2c(c1-c1ccco1)CCCC2	-3%
CCN(C(=O)c1cn(C)c(=O)c2cc(OC)c(OC)cc12)c1ccccc1C	55%
O=C(CSCc1ccc(Cl)cc1)c1ccco1	10µM*[single pt active]
Cc1onc(-c2ccccc2Cl)c1C(=O)Nc1cc(=O)n(C)c(=O)n1C	7%
CNC(=O)n1ccc(C(=O)N2CCCCC2)n1	-4%
Cc1noc(C)c1C(=O)NC(C)C1CCCO1 (stereo unspecified)	-3%
O=C(CCCCn1c(=O)[nH]c2ccsc2c1=O)NCC1CCCO1 (stereo unspecified)	15%
O=C(c1ccc(=O)[nH]c1)N(Cc1ccco1)C1(C(=O)NC2CCCC2)CCCCC1	21%
CCOc1ccc(NC(C)c2cc(Cl)ccc2O)cc1 (stereo unspecified)	-18%
COc1cccc(-c2cc(NCc3ccccc3OC)ncn2)c1	42%
Nc1cc2c(nc3c4ccccc4c(N)cc3[n+]2-c2cccc3ccccc23)c2ccccc12 (tested in a mixture with another compound)	-7%[5.75 µM]
CS(=O)(=O)Nc1cccc(-c2cncnc2Nc2ccc(F)cc2)c1	6%
COc1ccc(Cn2nnnc2CN(Cc2cc3cccc(C)c3[nH]c2=O)C2CCCC2)cc1	46%
O=C(Cn1cnc2c(cnn2-c2ccccc2)c1=O)NC1CCCC1	-6%
COc1ccc(C2CC(c3ccco3)n3ncnc3N2)cc1 (stereo unspecified)	2.5µM*[single pt active]
Cc1cc(NC(=O)c2cnccn2)no1	14%
O=C(O)C(F)(F)C(F)(F)C(F)(F)C(F)(F)C(=O)O	-2%[5.75 µM]
COc1ccccc1CN1CCCC2(CCN(C(=O)c3ccco3)CC2)C1	2%
COc1ccc(C)cc1NC(=O)c1cc2c(C)nc3ccccc3c2o1	10%
COCCCNC(=O)c1cc2c(s1)CS(=O)(=O)C2	2%

Following part
SMILES	AmpC inh no det
CC1(C)CC(=O)c2c(noc2-c2ccccc2)C1	6%
CCc1ccc(OCC(=O)Nc2ccc(-c3nc4ccccc4o3)c(O)c2)cc1	-8%
CCC(c1nnnn1Cc1ccco1)N(Cc1cc2cc(C)cc(C)c2[nH]c1=O)CC1CCCO1 (stereo unspecified)	107%
CC(=O)C1=C(C)Nc2ncnn2C1c1ccccc1Cl (stereo unspecified)	-9%
NC1CCCCC1N=Cc1c(O)n(Cc2ccc(F)cc2)c(=O)[nH]c1=O (stereo unspecified)	47%
COc1ccc2cc(S(=O)(=O)N3CCOCC3)ccc2c1	28%
COC(=O)[C@@]1(Cc2ccc(F)cc2)[C@H]2c3cc(C(=O)N4CCCC4)n(Cc4ccc(C)o4)c3C[C@H]2CN1C(=O)c1ccccc1	159%
CCCSc1nc(C)cc(=O)[nH]1	-14%
COc1cc2c(C(=O)NCc3ccccn3)cn(CC(C)C)c(=O)c2cc1OC	38%
Cc1cc(OCC(=O)N(C)C)c2c(-c3ccccc3)cc(=O)oc2c1	35%
CCN(CC)S(=O)(=O)c1cccc(C(=O)OCc2cc(=O)n3nc(C)sc3n2)c1	71%
Cc1ccc(O)c(NC(=O)c2cccc(NC(=O)c3ccco3)c2)c1	?
Cc1nc2ccc(S(=O)(=O)NCC(=O)NCCN3CCCCCC3)cc2s1	37%
COC(=O)N1CCC[C@@]2(CCN(C(=O)Nc3ccccc3)C2)C1	9%
C#CCOC(=O)NC(/C=C/CCCC)c1ccccc1 (stereo unspecified)	13%
CC(=O)Nc1ccc(S(=O)(=O)CCC#N)cc1	-12%
CCCc1cc(COC)c(C#N)c(=O)[nH]1	-4%[5.75 µM]
CN(C)CCN1C(=O)CC[C@]2(C)C1=CC[C@@H]1[C@@H]2CC[C@]2(C)[C@H]1CC[C@]2(C)O	9%[5.75 µM]
O=C(NCCCN1CCOCC1)c1cc(-c2cccs2)on1	-3%
Cc1ccc(Cn2ccc(NC(=O)c3cc(-c4ccco4)on3)n2)cc1	-9%
Nc1nc(CSc2nc3ccccc3[nH]2)nc(N2CCOCC2)n1	-12%
Cc1cccc(N2CCN(S(=O)(=O)c3ccc4c(c3)c(=O)n(C)c(=O)n4C)CC2C)c1 (stereo unspecified)	82%
CCn1c(C)csc1=NC(=O)c1ccccc1O	-2%
C#CC(C)(CC)NC(=O)c1cc(OC)c(OC)c(OC)c1 (stereo unspecified)	-6%
Oc1ccccc1	-4%
N#Cc1cccc(NC(=O)N2CC[C@@]3(CCCN(S(=O)(=O)c4ccccc4)C3)C2)c1	20%
CCCCOC(=O)Cn1c(=N)n(CCC)c2ccccc21	3%
O=C(COC(=O)c1n[nH]c2ccccc12)NC(=O)NCc1ccco1	2%
Cc1cccc(NS(=O)(=O)c2cccs2)n1	-4%
O=C(Nc1ccc(OCC(=O)N2CCN(S(=O)(=O)c3ccccc3)CC2)cc1)c1ccco1	35%
CCc1ccc2nc(NC(=O)c3cc(C)on3)sc2c1	-11%
CCCCCCCCOC(=O)c1ccccc1C(=O)OCCCCCCCC	-4%
C=CCn1cnc2c(c1=O)c1nc3ccccc3nc1n2/N=C/c1ccccn1	142%
COC(=O)CCc1n[nH]c(=O)[nH]c1=O	-5%
COc1cccc(-c2cc(N(C)Cc3ccco3)ncn2)c1	19%
c1cc(CNCCN2CCNCC2)ccn1	2%[5.75 µM]
CC(C(=O)Nc1ccccc1C(=O)N1CCCC1)n1nnc2ccccc21 (stereo unspecified)	-6%
c1ccc(Nc2ncncc2-c2ccoc2)cc1	31%
O=C(NCCOCC(F)(F)C(F)F)c1cc(F)c(F)cc1Cl	-1%
Cc1cc(C)c(C(=O)COC(=O)Cn2cnnn2)cc1C	32%
CC(=O)Nc1cc(NC(C)=O)c2nc(N)sc2c1	-3%
O=C(NC1CC2CCC1C2)C1COc2ccccc2O1 (stereo unspecified)	-6%
COC(=O)c1cc(OC)c(OC)cc1NC(=O)Nc1ccc(OC)cc1OC	79%
CCCn1c(CN2CCN(C(=O)c3ccco3)CC2)nc2c1c(=O)n(C)c(=O)n2C	-13%
CCCn1c(SCC(=O)Nc2cc(C)on2)nc2c1c(=O)n(C)c(=O)n2C	3%
COc1ccccc1-n1c(=S)sc2c(=O)n(Cc3ccco3)c(SC)nc21	-9%
C=CCOC(=O)C1=C(C)NC(SCC(=O)OCC)=C(C#N)C1c1ccc(O)c(OC)c1 (stereo unspecified)	-8%
O=C(Nc1cccc2nsnc12)c1ccc2c(c1)OCCO2	-4%
COc1ccc(C(O)P(=O)(O)CCc2ccccc2)cc1 (stereo unspecified)	-7%
CC(CC(=O)O)(CC(=O)O)C(=O)O	0%[5.75 µM]
CC(/C=C/c1ccc(Cl)o1)=C\C(=O)O	-4%
CCc1ccc(CCC(=O)Nc2ccc(C)cc2C)o1	41%
CCN1c2ccccc2-c2nc3ccccc3n2C1c1cccnc1 (stereo unspecified)	14%
COC(=O)C1(CCSC)NC(c2ccccc2OC)C2C(=O)N(C)C(=O)C21 (stereo unspecified)	0%
CCC(C)(C)n1nnnc1C(c1ccc(OC)c(OC)c1)N1CCN(c2ccc(F)cc2)CC1 (stereo unspecified)	124%
COc1ccc(OC)c(-c2c[n+](=O)c3c(n2[O-])CCCC3)c1	2%
CCCOC(=O)CCn1c(=S)oc2ccccc21	4%
CCCCCn1c(SCC#N)nc2cc(C(=O)NC3CCCCC3)ccc2c1=O	-5%
CCOC(=O)CNC(=O)c1ccc2c(c1)OCCO2	-4%
Cn1c(SCc2nc3ccccc3c(=O)[nH]2)nnc1-c1ccco1	-13%

Part of the list above in order of formula weight, falling.
SMILES	AmpC inh no det
CCC(C)(C)n1nnnc1C(c1ccc(OC)c(OC)c1)N1CCN(c2ccc(F)cc2)CC1 (stereo unspecified)	124%
C=CCOC(=O)C1=C(C)NC(SCC(=O)OCC)=C(C#N)C1c1ccc(O)c(OC)c1 (stereo unspecified)	-8%
COc1ccccc1-n1c(=S)sc2c(=O)n(Cc3ccco3)c(SC)nc21	-9%
CCCn1c(CN2CCN(C(=O)c3ccco3)CC2)nc2c1c(=O)n(C)c(=O)n2C	-13%
CCCCCn1c(SCC#N)nc2cc(C(=O)NC3CCCCC3)ccc2c1=O	-5%
CCCn1c(SCC(=O)Nc2cc(C)on2)nc2c1c(=O)n(C)c(=O)n2C	3%
COC(=O)c1cc(OC)c(OC)cc1NC(=O)Nc1ccc(OC)cc1OC	79%
O=C(NCCOCC(F)(F)C(F)F)c1cc(F)c(F)cc1Cl	-1%
Cn1c(SCc2nc3ccccc3c(=O)[nH]2)nnc1-c1ccco1	-13%
CCN1c2ccccc2-c2nc3ccccc3n2C1c1cccnc1 (stereo unspecified)	14%
O=C(Nc1cccc2nsnc12)c1ccc2c(c1)OCCO2	-4%
COc1ccc(C(O)P(=O)(O)CCc2ccccc2)cc1 (stereo unspecified)	-7%
Cc1cc(C)c(C(=O)COC(=O)Cn2cnnn2)cc1C	32%
O=C(NC1CC2CCC1C2)C1COc2ccccc2O1 (stereo unspecified)	-6%
CCc1ccc(CCC(=O)Nc2ccc(C)cc2C)o1	41%
CCOC(=O)CNC(=O)c1ccc2c(c1)OCCO2	-4%
CC(=O)Nc1cc(NC(C)=O)c2nc(N)sc2c1	-3%
c1ccc(Nc2ncncc2-c2ccoc2)cc1	31%
CC(/C=C/c1ccc(Cl)o1)=C\C(=O)O	-4%
CC(CC(=O)O)(CC(=O)O)C(=O)O	0%[5.75 µM]

New compounds follow
SMILES	AmpC inh no det
CCCOc1ccc(N2C(=O)CC(N(O)c3ccccc3)C2=O)cc1 (stereo unspecified)	0%
COc1cccc(-n2nnc3c(=O)n(Cc4ccc(F)cc4)cnc32)c1	3%
CCCn1cnc2cc(NCc3cccc(OC)c3)ccc21	40%
COCC(C)n1c(C)cc(C(=O)COc2ccc(S(=O)(=O)N3CCOCC3)cc2Cl)c1C (stereo unspecified)	111%
CNCC/C=C\c1cccnc1	2%
COCCCN1CC23C=CC(O2)C(C(=O)OC)C3C1=O (stereo unspecified)	-6%
COC(=O)c1ccc(S(=O)(=O)N(Cc2cc3cc4c(cc3[nH]c2=O)OCO4)C2CCCCC2)cc1	-11%
